Vif TR-FRET – inhibitors of Vif binding to APOBEC3G peptide, primary screen, biochemical, TR-FRET, GST-Vif 1-94, biotin-A3G peptide, dose response retest (AID 1117319); 0.57% of 260,000 active; inhibition, %, or IC50 in µM where a hit was titrated; TR-FRET GST-Vif / biotin-A3G peptide binding; higher % means a stronger effect; test concentration not given here; strong numbers were not always called active;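 active = above the screen mean plus three standard deviations and confirmed in dose response; inconclusive = results disagree or hit not tested in dose response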;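 note: Vif residues 1-94 fused to GST binding biotinylated APOBEC3G peptide 110-148; 0% = full assay without inhibitor and 100% = GST in place of GST-Vif; retest series ran down from 100 µM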
ALR H2O2 inh – inhibitors of human sulfhydryl oxidase ALR. 3.8% of 290,000 active. purified ALR, DTT oxidation, H2O2 HRP-luminol luminescence. P55789. inhibition, % (test concentration not listed);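 active = mean and each replicate at 75% or more; inconclusive = only one of the two met; inactive = neither met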;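 note: stock transfer was 7.5 nL into about 7.5 µL; 0% = neutral wells and 100% = wells with inactivated enzyme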
Target sequence (P55789 whole entry, looked up): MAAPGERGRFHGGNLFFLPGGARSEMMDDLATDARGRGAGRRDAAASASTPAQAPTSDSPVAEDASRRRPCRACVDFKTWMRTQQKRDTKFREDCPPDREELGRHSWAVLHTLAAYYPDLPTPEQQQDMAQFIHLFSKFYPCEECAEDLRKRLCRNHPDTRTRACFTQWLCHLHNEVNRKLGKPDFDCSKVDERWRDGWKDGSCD
B2AR ag – agonists of human beta-2 adrenergic receptor inducing internalization; AID 504454; 0.43% of 340,000 active; Am2.2-beta2AR cells, FAP receptor internalization, flow cytometry; reference of the scale not given here; response, % (test concentration not listed); P07550;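 active = response above a set limit, near 3 SD of response in nonfluorescent compounds, cut at about 42% in these data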;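 note: stock transfer was 100 nL into about 11 µL; a reference agonist was the positive control; negative values mostly stem from fluorescent compounds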
Calb FLC – C. albicans growth modulation with fluconazole; growth inhibition, % (no concentration beside the values); 0.57% of 300,000 active; C. albicans CaCi-2 (fluconazole-resistant clinical isolate) + fluconazole, Alamar Blue growth, 48 h; AID 1979;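 active = most replicates above 75%; inconclusive = exactly half above 75%; inactive = most below 75%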;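 note: all wells also contain fluconazole at 8 µg/ml as a sub-toxic cotreatment; 0% = median of DMSO wells and 100% = median of geldanamycin control wells; wells of about 8 µL received 7.5 nL stock; the first replicate is given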
LANA-H2A inh – blocks KSHV LANA binding to histone H2A/H2B; 0.6% of 320,000 active; Q9QR71; inhibition, % (no concentration beside the values); AID 2629; cell-free LANA-H2A/H2B peptide, fluorescence polarization; in the data active = inhibition mostly above about 10%, no sharp cut-off; inactive = mostly below about 6.7%;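 note: stock transfer was 7.5 nL into about 10 µL; 0% = median of vehicle wells and 100% = median of positive control wells; one replicate is shown; the record names a cut of 25% in any replicate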
HNF4A DNA FP – change in binding of human HNF4 alpha to DNA. P41235. HNF4a-FITC DNA binding, fluorescence polarization, 1 h. activity change, % at 10 µM. 0.3% of 360,000 active. AID 1224865; in the data active = activity change above about 30%, passing the limit was not always enough;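 note: controls were the assay level and a saturating level of protein; the project sought stronger binding though the title names inhibitors; some compounds called inactive have numbers as strong as hits; positive values seem to mean higher polarization but the record does not say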
Target sequence (P41235 whole entry, looked up): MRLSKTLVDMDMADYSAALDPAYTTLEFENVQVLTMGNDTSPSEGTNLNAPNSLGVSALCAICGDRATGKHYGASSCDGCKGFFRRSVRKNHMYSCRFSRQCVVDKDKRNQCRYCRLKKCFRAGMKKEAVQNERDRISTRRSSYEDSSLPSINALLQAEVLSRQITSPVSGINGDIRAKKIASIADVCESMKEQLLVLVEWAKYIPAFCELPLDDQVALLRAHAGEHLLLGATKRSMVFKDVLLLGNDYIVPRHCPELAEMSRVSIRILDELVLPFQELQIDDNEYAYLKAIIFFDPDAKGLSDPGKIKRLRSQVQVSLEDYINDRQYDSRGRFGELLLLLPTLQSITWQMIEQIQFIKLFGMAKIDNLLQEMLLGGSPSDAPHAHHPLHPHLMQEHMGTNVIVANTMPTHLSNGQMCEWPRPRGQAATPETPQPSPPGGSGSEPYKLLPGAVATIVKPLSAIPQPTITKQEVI
RanGTP-Impb inh – inhibitors of RanGTP-importin-beta interaction, primary screen, biochemical, FRET, CFP-Ran, YFP-importin-beta, homogeneous; cell-free CFP-Ran/YFP-importin-beta FRET ratio; inhibition, % (no concentration beside the values); 1.1% of 300,000 active; AID 2216;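 active = most replicates above 15%; inconclusive = exactly half above 15%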;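 note: 0% = DMSO wells and 100% = Ran loaded with GDP instead of GTP; wells of about 40 µL received 100 nL stock; the first replicate is given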
Numbers without * were called inactive; ? = inconclusive; . = no result given. Compounds as they come; about 6.3% have a hit in one of these screens.

SMILES	ALR H2O2 inh	RanGTP-Impb inh	HNF4A DNA FP	Vif TR-FRET	LANA-H2A inh	B2AR ag	Calb FLC
O=C(COc1ccc2ccc(=O)oc2c1)Nc1cc([N+](=O)[O-])ccc1F	-5	-2.6	-4.7	-3%	1.2	60*	.
CCN(CC)C(=O)CSc1nc(O)c(Cc2ccc(OC)cc2)c(=O)[nH]1	98*	3.4	0.3	2%	3.4	-1	4
c1ccc(OCc2nnc3n2N=C(c2ccccc2)CS3)cc1	-33	-0.9	2.0	-2%	-3.2	-14	0
COCC(C)n1c(SCC(=O)Nc2sccc2C(N)=O)nc2ccccc2c1=O (stereo not given)	.	.	4.3	-5%	0.4	-5	.
CN(CC(=O)NC1CCCC1)S(=O)(=O)c1cnc[nH]1	-4	0.2	0.0	-8%	4.7	-1	-6
COC(=O)c1ccc(-n2nnnc2SCC(=O)Nc2cc(OC)ccc2OC)cc1	-22	1.4	-2.9	>100µM*	3.0	6	-8
Cc1cccc(Nc2ccccc2C(=O)OCC(=O)N2CCOCC2)c1C	.	2.0	3.7	-2%	-1.0	7	19
N#CC1=C(N)SC(N)=C(C#N)C1c1ccc([N+](=O)[O-])cc1	98*	-2.0	20	.	-3.3	7	18
COc1ccc(/C=C/C(=O)OCc2nc3ccccc3c(=O)[nH]2)c(OC)c1	0	0.6	-2.4	6%	4.3	-8	-7
O=C1COc2ccc(C(=O)COC(=O)CNS(=O)(=O)c3cccc(F)c3)cc2N1	-3	.	0.2	-10%	0.2	-8	.
Cc1ccc(C(=O)Nc2nc(C)c(C(=O)Nc3ccc4c(c3)CCC4)s2)cc1	4	-1.2	1.4	-12%	0.8	9	-8
CCc1cc2c(=O)c(-n3cnc4ccccc43)coc2cc1O	0	1.4	-2.9	-1%	0.0	-2	4
Cc1ccc(NC(=O)C2CCCN(c3ncccn3)C2)c(C)c1 (stereo not given)	-6	-0.8	2.7	.	-4.4	-5	2
COc1ccccc1-c1nnc(-c2ccc(C)cc2)o1	-5	7.0	0.0	.	-1.7	13	-1
Cc1noc(C)c1C(=O)Nc1ccccc1N1CCCC1	94*	.	1.2	4%	0.6	-6	.
CC(CC(=O)Nc1nnc(CC(C)(C)C)s1)c1ccccc1 (stereo not given)	-1	-1.6	-0.4	3%	-4.8	23	-2
O=C(c1cc2cc(F)ccc2[nH]1)N1CCC(Cc2ccccc2)CC1	-9	-3.8	2.7	-6%	-0.9	-2	18
Cn1nc(C(=O)Nc2nc3ccc(S(C)(=O)=O)cc3s2)ccc1=O	0	21	-3.9	3%	0.7	0	13
N#CCC(=O)Nc1ccc(C(=O)NNC(=S)NC2CC2)cc1	.	.	6.1	10%	.	3	.
CN1CCN(S(=O)(=O)c2cccc(C(=O)Oc3cccc(C#N)c3)c2)CC1	.	1.0	-2.4	2%	5.9	7	15
O=C(NCC1CCC(C(=O)O)CC1)c1cccnc1 (stereo not given)	-5	0.4	0.3	-1%	4.3	1	2
COc1ccc(C2/C(=C(/O)c3ccc(S(=O)(=O)N4CCOCC4)cc3)C(=O)C(=O)N2CCN2CCOCC2)cc1 (stereo not given)	-1	-1.4	-0.9	.	0.2	11	11
O=C(CCS(=O)(=O)c1ccc(Br)s1)NCc1ccc2c(c1)OCO2	2	5.3	1.9	0%	7.1	0	-4
COc1cccc(CC(=O)Nc2ccc(S(=O)(=O)Nc3nc(C)cc(C)n3)cc2)c1	-8	-2.3	3.1	1%	-7.7	2	6
CCC(=O)Nc1c2c(nn1-c1ccc(C)cc1C)CSC2	23	-4.8	2.8	2%	-0.5	-4	28
CCOc1ccccc1NC(=O)CN(Cc1ccccc1)S(C)(=O)=O	-2	3.2	0.2	?	-1.5	0	5
COC(=O)c1ccc(COc2ccccc2/C=C(\C#N)C(=O)NC(C)C)cc1	.	3.2	0.9	.	.	-3	6
COC(=O)c1sc(NC(=S)NC(=O)c2ccccc2F)nc1C	-24	2.5	-0.3	-51%	2.7	-2	?
COc1ccc(S(=O)(=O)N2CCCC2)cc1Br	-4	-2.1	-0.6	.	-0.4	-6	3
COC(=O)c1ccc(C2c3c(oc4ccc(F)cc4c3=O)C(=O)N2CCO)cc1 (stereo not given)	-2	9.2	-0.4	1%	6.4	-4	4
Cc1[nH]c2ccccc2c1CCN(Cc1cccnc1)C(=S)NC(C)(C)C	-1	-2.7	-3.0	-2%	-3.2	-3	5
CCOC(=O)c1ccc(N(CC(=O)NCC2CCCO2)C(=O)CCC(=O)Nc2cc(C)on2)cc1 (stereo not given)	.	0.7	-0.4	-1%	-2.8	-11	0
CCOC(CNC(=O)CN1C(=O)COc2ccc(S(=O)(=O)N3CCOCC3)cc21)OCC	-9	0.8	-2.4	.	.	5	-11
Cc1nn(C(C)C(=O)N2CCOCC2)c(C)c1[N+](=O)[O-] (stereo not given)	.	-2.6	0.0	12%	.	-5	-6
O=C(c1ccc2nccnc2c1)N1CCN(c2ccccc2)CC1	71	4.0	2.7	.	-0.5	10	-4
CCOC(=O)C1CCN(C(c2ccc(OC)c(OC)c2)c2sc3nc(C)nn3c2O)CC1 (stereo not given)	.	-6.2	-2.9	0%	3.7	4	1
Cc1ccccc1CN1CCN(C(=O)CC(C)C)CC1	-11	1.1	-0.8	.	1.3	0	0
CN1CCN(CCCNC(=O)c2ccc(/C=C3\Sc4ccccc4N(Cc4ccc(F)cc4)C3=O)cc2)CC1	.	2.5	-0.4	4%	.	99*	71
C[C@@H](C(=O)OCC(=O)NCCc1ccc(S(N)(=O)=O)cc1)N1C(=O)C2CCCCC2C1=O (stereo not given in full)	-2	-0.5	-5.4	-1%	-0.1	3	-4
CC1CCCCC12NC(=O)N(CC(=O)Nc1ccc(Cl)c(S(=O)(=O)N3CCOCC3)c1)C2=O (stereo not given)	.	.	0.2	-5%	.	14	.
CCOC(=O)c1cccc(NC(=O)N[C@@H](C)C(=O)OC)c1	-6	0.4	1.4	9%	5.8	7	2
CCN(CC)CCNC(=O)c1ccc(NC(=O)c2cccc(-n3cnnn3)c2)cc1	3	.	7.5	.	0.8	-8	-1
Brc1ccc(C2=NC(Cc3ccccc3)CO2)cc1 (stereo not given)	-7	1.2	0.6	?	-2.4	-5	-21
O=C(O)CCc1ccccc1OC(=O)c1ccccc1	-4	0.4	-2.9	2%	1.4	6	-1
Cc1ccc(C2=C(O)C(=O)C(c3ccc(C)cc3)=C(O)C2=O)cc1	.	.	-15	17%	.	-3	.
CCC(=O)OC1(C)C(=O)C=C2C=C(CCCCNC(=O)OC(C)(C)C)OC=C2C1=O (stereo not given)	-16	-5.3	.	.	5.3	.	-4
OC(C#CCN1CCCCC1)(c1ccccc1)c1ccccc1	-4	2.0	-0.3	.	-0.7	-4	-1
Cc1c(NC(=O)CSc2nc3ccccc3s2)c(=O)n(-c2ccccc2)n1C	99*	8.0	1.2	0%	-1.1	-14	19
CC(=O)OCC1=C(C(=O)O)N2C(=O)C(NC(=O)CC(C)c3ccccc3)C2SC1 (stereo not given)	60	.	-6.9	0%	3.5	0	.
COC(=O)c1cccc(C(=O)Nc2ccc(C)cc2Br)n1	-6	-0.8	1.8	-5%	-2.4	-4	13
Cc1cc(NC(=O)CSc2nnc(C)c(=O)[nH]2)no1	6	7.8	-5.4	8%	-0.3	12	3
Cc1cc(/C=N/NC(=O)c2ccc(O)cc2)c(C)n1C1CC1	-2	-12	-0.5	-3%	-2.5	3	-7
COc1ccc(CCNC/C=C/c2ccccc2)cc1	.	-11	4.1	-6%	5.5	-4	-15
CCN(C(=O)COC(=O)CCC1CCCC1)c1c(N)n(Cc2ccccc2)c(=O)[nH]c1=O	.	.	4.7	2%	.	-2	.
O=C(c1ccc(Cl)c(S(=O)(=O)N2CCCCCC2)c1)N1CCCC1	0	?	-2.8	12%	1.1	-17	2
CCOc1ccc(S(=O)(=O)N2CCC(C(=O)NCC3CCCO3)CC2)cc1C (stereo not given)	-2	-1.1	2.2	.	-0.4	1	-4

Next structures follow:
SMILES	ALR H2O2 inh	RanGTP-Impb inh	HNF4A DNA FP	Vif TR-FRET	LANA-H2A inh	B2AR ag	Calb FLC
OC(CN1CCN(Cc2ccccc2)CC1)c1ccc(F)cc1 (stereo not given)	-2	1.0	-6.4	26%	-4.6	-2	-1
Cc1cc(C(=O)NCc2cccs2)c(C)o1	18	1.0	-0.8	25%	1.8	-1	-6
COC(=O)c1nc(NNC(=O)c2ccccc2)sc1-c1ccccc1	13	-0.3	0.4	-4%	-4.6	-4	-1
O=C(NCCNc1ccc2ccccc2c1)c1cccn2c(=O)c3sccc3nc12	.	-1.0	.	-4%	-4.2	.	16
COc1ccc(CNC(=O)C[C@H]2C[C@H](C(=O)N3CCOCC3)[C@@]3(CCC4CCCC4)c4[nH]c5cc(CCC(=O)N(C)C)ccc5c4CCN3C2=O)cc1OC	.	.	0.5	3%	.	3	.
COc1ccc(-c2nnn(CC(=O)N(CC(=O)NC3CCCC3)c3ccccc3F)n2)cc1OC	2	1.4	1.5	.	3.6	2	20
Cc1nc(N2CCN(S(=O)(=O)c3ccccc3C#N)CC2)c2c(-c3cccs3)csc2n1	.	2.0	-0.5	-26%	-2.6	21	0
COC(=O)/C=C/c1c(C)[nH]c(=O)[nH]c1=O	-4	4.0	-2.0	10%	4.5	-5	-3
COC(=O)c1c(NC(=O)Cc2ccc(OC)c(S(=O)(=O)N3CCOCC3)c2)sc(C)c1C	-2	0.2	4.6	2%	0.2	17	-7
COc1ccccc1OCc1ccc(C(=O)Nc2ccccc2)cc1	-6	.	0.1	-9%	.	7	.
Cc1cnc(C(=O)N2CCN(S(=O)(=O)c3ccc4ccccc4c3)CC2)cn1	-12	-1.4	-1.1	10%	1.6	4	-24
COc1ccc(C(C(=O)NC(C)(C)C)N(C(=O)CCC(=O)Nc2ccccn2)C2CCCCC2)cc1 (stereo not given)	-4	-0.6	-1.4	.	1.3	-15	2
O=C1c2ccccc2C(=O)N1CCc1nc2ccccc2c(=O)n1CCCn1ccnc1	.	25*	2.0	-3%	-1.1	-16	2
CC(=NNC(=O)c1cc(C)nc2ccccc12)c1ccc(N2CCOCC2)cc1	.	.	3.2	-5%	1.1	6	.
O=C(COC(=O)CCC1CCCC1)Nc1ccc(F)cc1	-10	.	-0.5	-5%	3.6	0	.
COc1ccc(CCNC(=O)COc2cc(O)c3c(c2)OC(C)(C)CC3=O)cc1OC	25	-1.5	2.6	.	-4.2	0	1
CC(C)[C@H](NC(=O)OCc1ccccc1)C(=O)NCc1ccccc1	-3	3.9	2.1	.	2.3	0	?
CC(=O)C(C(C)=O)c1cc(NS(=O)(=O)c2ccccc2)ccc1NS(=O)(=O)c1ccccc1	8	0.5	-2.4	.	0.6	-4	-4
CN(C)c1ccc(CNC(=O)CN2C(=O)COc3ccc(S(=O)(=O)N4CCCC4)cc32)cc1	99*	-3.8	2.6	.	0.8	3	0
COc1ccc(OC)c(S(=O)(=O)Nc2c(C)cccc2C)c1	-7	-1.6	-0.5	.	1.5	-5	2
O=c1c2cc(NC(=S)N3CCC(N4CCCCC4)CC3)ccc2nc2n1CCCCC2	7	23*	7.7	-18%	5.0	-8	-26
COc1ccc(NC(=O)C2C3C=CC4(O3)C2C(=O)N(CCCN2CCCCC2)C4C(=O)NC2CCCC(C)C2C)cc1 (stereo not given)	-3	2.4	-0.2	.	-11	11	28
O=C1Nc2ccccc2C12OCCO2	-2	-2.7	-0.9	-7%	2.3	3	-6
